Screens deposited in PubChem by ICCB-Longwood Screening Facility, Harvard Medical School.
GIV-Gai inh – inhibitors of GIV peptide binding to Galpha-i3, primary screen, biochemical, fluorescence polarization, FITC-GIV GBA peptide, rat Galphai3; Guanine nucleotide-binding protein G(i) subunit alpha-3 (Rattus norvegicus), P08753; 90 min; stronger effect = lower value; scaled: aluminum fluoride 0%, vehicle 100%; percent of control (FP), % (concentration not given with the values); 210,000 tested, 0.42% active;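 active means replicate mean at 85% of control or lower, very high polarization wells dropped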;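 further: wells of about 15 µL received 100 nL stock; the first replicate is given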
Target sequence (P08753 whole entry, looked up): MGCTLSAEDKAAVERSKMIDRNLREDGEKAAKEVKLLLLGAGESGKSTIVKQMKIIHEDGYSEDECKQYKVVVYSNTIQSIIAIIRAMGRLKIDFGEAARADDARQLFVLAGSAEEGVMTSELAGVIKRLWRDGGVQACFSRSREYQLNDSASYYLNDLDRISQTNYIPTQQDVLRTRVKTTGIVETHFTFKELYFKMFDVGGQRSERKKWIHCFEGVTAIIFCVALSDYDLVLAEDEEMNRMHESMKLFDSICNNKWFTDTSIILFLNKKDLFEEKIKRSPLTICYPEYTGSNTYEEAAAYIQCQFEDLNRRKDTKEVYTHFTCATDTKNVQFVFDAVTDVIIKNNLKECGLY
* marks the source's active call; other numbers are inactive results. These rows are one share of the data; count on the stated rates, not on these rows.

# | Molecule | GIV-Gai inh
1 | Cc1nn(-c2ccc3nnc(C)n3n2)c2c1C(c1ccccc1OCc1cccc(Cl)c1)CC(=O)N2 (stereo not drawn) | 102
2 | COc1ccc(-n2c3c(cc(C(=O)NCCc4ccc(OC)c(OC)c4)c2=O)C(=O)CC(C)(C)C3)cc1 | 103
3 | COc1ccccc1Oc1cc(-c2cccc(C(=O)Nc3ccc(C)cc3)c2)ncn1 | 101
4 | Cc1ccc(C2=Nc3cccnc3N(CC(=O)NCc3ccc(Cl)cc3)C(=O)C2)cc1C | 101
5 | Clc1ccc(-n2cc(-c3ccccc3)c3c(N4CCC5(CC4)OCCO5)ncnc32)cc1 | 104
6 | Cc1nc2scc(C)n2c(=O)c1NC(=O)c1ccc(Br)cc1 | 103
7 | COc1ccc(Oc2ncc(-c3ccc(C(=O)NCC(C)C)cc3)cn2)cc1 | 99
8 | Nc1nc2c([nH]c(=O)n2C2OC(CO)C(O)C2O)c(=O)[nH]1 (stereo not drawn) | 105

Grouped by structure, those above containing an aryl methoxy group.
# | Molecule | GIV-Gai inh
2 | COc1ccc(-n2c3c(cc(C(=O)NCCc4ccc(OC)c(OC)c4)c2=O)C(=O)CC(C)(C)C3)cc1 | 103
3 | COc1ccccc1Oc1cc(-c2cccc(C(=O)Nc3ccc(C)cc3)c2)ncn1 | 101
7 | COc1ccc(Oc2ncc(-c3ccc(C(=O)NCC(C)C)cc3)cn2)cc1 | 99

Remaining list, next part:
# | Molecule | GIV-Gai inh
9 | COc1cc(N2C=C(C#N)S(=O)(=O)c3ccc(Cl)cc32)c(OC)cc1Cl | 92
10 | COc1ccc(-c2noc(Cn3nc(-c4ccccc4)c4ccccc4c3=O)n2)c(OC)c1 | 107
11 | Cc1cccc(-c2nc3c4ccccc4n(CC(=O)c4c[nH]c5ccccc45)c(=O)n3n2)c1 | 105
12 | CCN(CC)S(=O)(=O)c1c(C)[nH]c(C)c1-c1nnc(C2CCC2)o1 | 108
13 | COc1cccc2cc(C(=O)Nc3ccc(F)c(Cl)c3)c(=Nc3ccc(C(=O)O)cc3)oc12 | 116
14 | CC(=O)N1c2ccccc2N=C(c2ccc(Cl)cc2)CC1c1ccc(F)cc1 (stereo not drawn) | 114
15 | CN(CCNC(=O)C1CCCN(c2nn3c(=O)c4c(nc3s2)CCCC4)C1)C1CCCCC1 (stereo not drawn) | 105
16 | O=C(Nc1ccc2c(c1)OCCO2)c1ccc(N2CC3CC(C2)c2cccc(=O)n2C3)c(NC(=O)c2c(F)cccc2F)c1 (stereo not drawn) | 107
17 | O=C1CN(Cc2ccc(Br)cc2)S(=O)(=O)c2ccccc2N1Cc1ccccc1F | 108
18 | COc1cc(OC)cc(-c2noc(CCn3nc(-c4ccc5c(c4)OCO5)ccc3=O)n2)c1 | 99
19 | OC(CN1CCN(c2ccccn2)CC1)Cn1c2ccc(Cl)cc2c2cc(Cl)ccc21 (stereo not drawn) | 114
20 | Cc1cccc(NC(=O)CSc2nc3n[nH]c(C)c3c(=N)n2-c2ccc(Br)cc2)c1 | 106
21 | CC(=O)Nc1ccc(C)cc1S(=O)(=O)NCc1ccc2c(c1)CCN2C(=O)c1cccc(C)c1 | 107
22 | O=C(CSc1nc2ccccc2nc1Cc1ccccc1)NCC1CCCO1 (stereo not drawn) | 101
23 | O=C(CCC1CCCC1)Nc1ccc(S(=O)(=O)N2CCCCC2c2cccnc2)cc1 (stereo not drawn) | 103
24 | CCOc1cccc2c1OC(c1ccccc1Cl)N1N=C(c3ccc(F)cc3)CC21 (stereo not drawn) | 104
25 | COc1cc(OC)c(C2C(C(=O)OCCOc3ccccc3)=C(C)NC3=C2C(=O)CC(C)(C)C3)cc1OC (stereo not drawn) | 105
26 | COc1cc(NS(=O)(=O)c2ccc(NC(=O)Cc3nn(C)c(=O)c4ccccc34)cc2)nc(OC)n1 | 102
27 | O=C(NC1CCCCC1)c1cccc(Oc2cc(-c3cccc(F)c3)ncn2)c1 | 100
28 | O=C(Nc1nc2ccccc2n1CCOc1ccccc1)c1ccccc1 | 113
29 | O=C(NN1S(=O)(=O)c2ccccc2S1(=O)=O)c1nc[nH]c1C(=O)Nc1ccccc1 | 111
30 | COc1ccccc1/C=C1\N=C(c2ccc(OC)c(OC)c2)N(c2cc(C)cc(C)c2)C1=O | 111
31 | O=C(NC1CC1)C1CCCN(S(=O)(=O)c2cc(-c3noc(C4CCCC4)n3)cs2)C1 (stereo not drawn) | 104
32 | COc1ccc(NC(=O)c2nc3c(=O)n(Cc4ccc(Cl)cc4)c4cc(C)ccc4n3n2)cc1 | 102
33 | COc1ccc(C2C(C(C)=O)=C(C)N=c3s/c(=C/c4cc5c(cc4Br)OCO5)c(=O)n32)cc1 (stereo not drawn) | 100
34 | COc1ccc(CNC(=O)C2(C)CCCN(C(=O)COc3ccccc3)C2)cc1 (stereo not drawn) | 102
35 | Cc1ccc(-c2nc3ccccc3c3nnc(SCC(=O)NC4CCCC4)n23)cc1 | 101
36 | COc1cc(C2Nc3ccc(C)cc3[C@H]3OCC[C@@H]23)cc(I)c1OC (stereo partly drawn) | 97
37 | Cn1nc(COCc2ccccc2)c2c1CCN(S(=O)(=O)c1ccccc1Cl)C2 | 102
38 | C=CCn1c(SCC(=O)OC)nc2c(-c3ccccc3)cn(C)c2c1=O | 104
39 | CCN1CCCC1CNS(=O)(=O)c1ccc2c(c1)C(C)(C)CN2C(=O)C1CC1 (stereo not drawn) | 106
40 | CCOC(CNC(=O)c1sc2ncnc(N3CCCCC3)c2c1C)OCC | 103
41 | O=C(Cn1nc(C(=O)Nc2ccccc2)ccc1=O)NCc1ccc2c(c1)OCO2 | 104
42 | CC1=CCC2(C(=O)OC(C)(C)OC2=O)C(c2ccc(F)cc2)C1 (stereo not drawn) | 100
43 | Cc1ccc(-n2c(O)c(C=Nc3ccc(S(=O)(=O)Nc4nccs4)cc3)c(=O)[nH]c2=O)cc1 | 118
44 | CCn1cnnc1C1CCCN(Cc2cccc(C)c2)C1 (stereo not drawn) | 111
45 | C=CCNc1nc(OC)nc(N2CCC(Cc3ccccc3)CC2)n1 | 117
46 | CC(=O)c1cc(C#N)c(SCC(=O)NC23CC4CC(CC(C4)C2)C3)nc1C | 112
47 | CN(CC1COCCO1)c1ccc(NC(=O)c2ccccc2)cc1C(=O)O (stereo not drawn) | 109
48 | O=C(CCCn1c(=S)[nH]c2ccc(Br)cc2c1=O)NCCCN1CCN(c2ccccc2F)CC1 | 105

3 of these compounds in another layout.
| No. | GIV-Gai inh | Molecule |
| --- | --- | --- |
| 45 | 117 | C=CCNc1nc(OC)nc(N2CCC(Cc3ccccc3)CC2)n1 |
| 46 | 112 | CC(=O)c1cc(C#N)c(SCC(=O)NC23CC4CC(CC(C4)C2)C3)nc1C |
| 47 | 109 | CN(CC1COCCO1)c1ccc(NC(=O)c2ccccc2)cc1C(=O)O (stereo not drawn) |

The results go on:
# | Molecule | GIV-Gai inh
49 | NC(=O)c1sc2nc3c(c(-c4ccccc4Cl)c2c1N)CCCCC3 | 98
50 | C[N+]12CCCC3CN4C(=O)CCCC4C(CCC1)C32 (stereo not drawn) | 102
51 | Cc1cccc(NC(=O)Cn2ncn3nc4c(c3c2=O)CCCC4)c1 | 101
52 | CCN1CCN(C(=O)c2sc3ncnc(N4CCN(c5ccccc5OC)CC4)c3c2C)CC1 | 99
53 | CCOC(=O)CNC(=O)N1CCCC1c1cc(C)on1 (stereo not drawn) | 109
54 | O=C(C1CCCN(C(=O)C2CCCC2)C1)N1CCCC1 (stereo not drawn) | 103
55 | CCCCC(C(=O)Nc1cccc(C)c1)N1C(=O)C2C3c4ccccc4C(c4ccccc43)C2C1=O (stereo not drawn) | 122
56 | CCOc1ccc(C2Nc3c(C)cc(C)cc3[C@H]3OCCC[C@@H]23)cc1 (stereo partly drawn) | 97
57 | CCCCS(=O)(=O)N1CCC2(C1)C(=O)N(C)c1ccccc12 (stereo not drawn) | 105
58 | Cc1nccn1-c1cc(N2CCC3(CC2)OCCO3)nc2ccnn12 | 102
59 | COC(=O)C1=C(C(=O)OC)SC(=C2C(=S)C(C)(C)N(C(=O)c3ccc(Br)cc3)c3c(OC)cccc32)S1 | 122
60 | COc1ccc(-n2nc(C(=O)Nc3c(F)cc(F)cc3Br)c3ccccc3c2=O)c(OC)c1 | 103
61 | CCc1cc(-c2csc(S(=O)(=O)NCCc3ccc(S(N)(=O)=O)cc3)c2)on1 | 104
62 | COc1cc(Br)c(C2CC(=O)Nc3ccc4ccccc4c32)cc1OC (stereo not drawn) | 105
63 | CC1(C)c2ccccc2N(c2ccccc2)C12C=Cc1cc([N+](=O)[O-])cc(Br)c1O2 (stereo not drawn) | 102
64 | CCC(C)(C)c1ccc(OCCCCNC(=O)c2cccc(C(=O)NCCCCOc3ccc(C(C)(C)CC)cc3C(C)(C)CC)c2)c(C(C)(C)CC)c1 | 101

Exported field by field: part of the list above
[60] COc1ccc(-n2nc(C(=O)Nc3c(F)cc(F)cc3Br)c3ccccc3c2=O)c(OC)c1
  GIV-Gai inh: 103
[62] COc1cc(Br)c(C2CC(=O)Nc3ccc4ccccc4c32)cc1OC (stereo not drawn)
  GIV-Gai inh: 105

Next section:
# | Molecule | GIV-Gai inh
65 | COc1ccc(C2(c3nc(Cn4cnc(S(=O)(=O)N5CCC(C)CC5)c4)no3)CC2)cc1 | 105
66 | CC(=O)Nc1nc(-c2ccc(Cl)cc2)nc2c1c(=O)oc1ccccc12 | 111
67 | COc1ccc(CNC(=O)c2ccc(Oc3nccnc3Sc3ccc(Cl)cc3)cc2)cc1 | 98
68 | COc1ccc(-c2cc(C(F)(F)F)n3nc(C(=O)Nc4ccc(Cl)cn4)cc3n2)cc1 | 104
69 | CCc1ccc2c(c1)[C@H]1OCC[C@H]1C(c1cc(O)ccc1Br)N2 (stereo partly drawn) | 100
70 | Cc1cccc(NC(=O)C2CCCN(S(=O)(=O)c3c(C)nn(CC(=O)N4CCc5ccccc54)c3C)C2)n1 (stereo not drawn) | 103
71 | COc1ccc2nc(NC(=O)C3CCN(c4nc(-c5ccc(OC)c(OC)c5)no4)CC3)sc2c1 | 103
72 | Fc1ccc2nc3c(nc2c1)c1ccccc1n3Cc1cc(Cl)cc2c1OCOC2 | 113
73 | O=c1c(S(=O)(=O)N2CCCC2)cccn1Cc1c(F)cccc1Cl | 113
74 | Cn1c(=O)c2c(nc3n(Cc4ccc5c(c4)OCO5)c(-c4ccccc4)cn23)n(C)c1=O | 121
75 | O=C(c1nn2c(C(F)(F)F)cc(-c3ccco3)nc2c1Br)N1CCCCCC1 | 105
76 | COC(=O)C1=CN(Cc2ccc(OC)c(OC)c2)C=C(C(=O)OC)C1c1cc(Br)c(OC)c(OC)c1 | 120
77 | CCOC(=O)c1[nH]c(C)c(CN(Cc2ccc(C)cc2)C(=O)Nc2cc(Cl)ccc2OC)c1C | 101
78 | COc1ccc(CNc2ccc(C(=O)N3CCCCC3)cc2S(=O)(=O)Nc2cccc(OC)c2)cc1 | 111
79 | Cc1nc2cc(-c3noc(-c4ccc(F)cc4)n3)ccc2o1 | 99
80 | O=C(CCc1nc2ccccc2n(CC(=O)Nc2cc(F)ccc2F)c1=O)NCc1ccccc1 | 97
81 | COc1ccc(C2=NC3(CCNCC3)NC(c3cc(Br)ccc3O)C2)cc1 (stereo not drawn) | 103
82 | Cc1nn(-c2nc3ccccc3[nH]2)c2c1C(c1cc(F)ccc1F)CC(=O)N2 (stereo not drawn) | 102
83 | O=C(NCc1cccnc1)c1ccc2c(=O)n(Cc3cccc(Br)c3)c(=S)[nH]c2c1 | 111
84 | O=S(=O)(NCCc1ccc(Cl)cc1)c1cccc2nsnc12 | 111
85 | Cc1cc(C)cc(NC(=O)c2ccc3cccc(O)c3n2)c1 | 100
86 | COc1ccc(Br)cc1C1Nc2ccc3ccccc3c2C2=C1C(=O)CC(c1ccccc1)C2 (stereo not drawn) | 104
87 | c1ccc(Nc2nc(NCCN3CCOCC3)nc(Nc3ccccc3)n2)cc1 | 107
88 | Nc1nc(Cn2nnc(-c3ccc(F)cc3)n2)nc(N2CCOCC2)n1 | 104
89 | CCn1c(C2CCN(C(=O)Nc3ccsc3C(=O)OC)C2)nc2cccnc21 (stereo not drawn) | 100
90 | Cc1ccc(C(=O)N/C(=C\c2ccc(C(C)C)cc2)C(=O)Nc2c(C)n(C)n(-c3ccccc3)c2=O)cc1 | 108
91 | CCOC(=O)c1sc2nc(SCC(=O)NCc3ccco3)n(Cc3ccc4c(c3)OCO4)c(=O)c2c1C | 119
92 | CC(C)c1nc2c(c(C(=O)NCCN(C)C)n1)OCCO2 | 108
93 | O=C(CSc1nc2ccccc2c(=O)n1CC1CCC(C(=O)NCC2CCCO2)CC1)NCc1ccco1 (stereo not drawn) | 99
94 | N#CC1=C(N)OC2=C(C(=O)CC(c3ccco3)C2)C1c1ccc(OCc2ccc(F)cc2)cc1 (stereo not drawn) | 112
95 | Fc1ccccc1CSc1nnc(-c2ccco2)n1-c1ccccc1 | 108
96 | Cc1cc(=O)oc2c3c(ccc12)O/C(=C\c1cccc([N+](=O)[O-])c1)C3=O | 114
97 | CC(C)CCCC(C)C1CCC2C3CC=C4CC(OC(=O)CC(C)Cl)CCC4(C)C3CCC12C (stereo not drawn) | 108
98 | COc1ccc(CNC2=NCCNC23CCC(C)CC3)cc1 (stereo not drawn) | 99
99 | Cc1ccc2c(c1)NC(C)(C)c1sn(Cc3ccc(Cl)cc3)c(=S)c1-2 | 103
100 | CCCNC(=O)N1c2ccccc2NC2=C(C(=O)CC(C)(C)C2)C1c1ccc(C)cc1 (stereo not drawn) | 100
101 | CCOC(=O)c1c(C)oc2ccc(N(C(=O)c3cccc([N+](=O)[O-])c3)S(=O)(=O)c3ccc(C)cc3)cc12 | 111
102 | COc1ccc(/C=C2/c3cc(C)ccc3-c3ncccc32)cc1OC | 123
103 | CCOC(=O)c1sc2ncnc(N3CCN(Cc4ccccc4)CC3)c2c1C | 102
104 | O=C1c2ccccc2-c2onc3ccc(Oc4ccc(Cl)cc4)c1c23 | 115
105 | O=c1[nH]c2ccc(S(=O)(=O)Nc3ccc(F)c(Cl)c3)cc2[nH]1 | 103
106 | O=C1NC(c2ccc(Cl)cc2)Nc2sc3c(c21)CCCC3 (stereo not drawn) | 116
107 | Cc1cccc(C(=O)N2CCc3c(c(COCc4ccccc4)nn3C)C2)c1 | 105
